# Screens from PubChem BioAssay.
# 2A StopGo: High Throughput Screening for Foot and Mouth Disease Virus Antivirals. human cells with a luciferase reporter of 2A StopGo recoding; control for the full effect not named in the record. Potency, µM (series often up to 57.9 µM), for the others: at the highest dose signal change, negative = less light. 1.2% of 410,000 active. AID 1159524, 2015; active = well fitted falling curve with a large enough effect; inconclusive = small, poorly fitted or top-dose-only effect; inactive = no such curve, though single readings can be large or run the other way; tested in HEK293T cells; also: % is scaled to controls: 0 for no effect and ±100 for the full control effect; nearly all actives have a fitted effect of over 45% in size; luciferase light after 4 h
# SARS PLpro yeast: qHTS of Yeast-based Assay for SARS-CoV PLP. S. cerevisiae expressing SARS-CoV PLpro, growth rescue; control for the full effect not named in the record. Potency, µM (highest dose often 32.9 µM), for the others: top-dose activity, positive = growth rescue. 0.19% of 330,000 active. AID 485353, 2010; active means well fitted rising curve with a large enough effect; inconclusive means small, poorly fitted or top-dose-only effect; inactive means no such curve, though single readings can be large or run the other way; also: 0% is about no effect; nearly all actives have a fitted effect of over 55% in size; growth read by luminescence after 48 h
# RE007 growth inh: qHTS Assay for Inhibitors of the HIV-1 protein Vpr. S. pombe RE007 Vpr strain, BacTiter-Glo ATP luminescence, 24 h; control for the full effect not named in the record. Potency, µM (doses to about 92.2 µM), without a hit: at the highest dose activity change, negative = less growth. 0.21% of 360,000 active; active = well fitted falling curve with a large enough effect; inconclusive = small, poorly fitted or top-dose-only effect; inactive = no such curve, though single readings can be large or run the other way;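 also: % is scaled to controls: 0 for no effect and ±100 for the full control effect; nearly all actives have a fitted effect of over 50% in size; the assay follows cell death caused by Vpr and the record does not say whether a fall means rescue or toxicity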
#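 Fission yeast RE007 carrying one integrated HIV-1 vpr copy, seeded at OD 0.01 in PMG+AL medium with 23 nL pinned compound. Grown 24 h at 30 degrees; viability read by BacTiter-Glo luminescence after 5 min.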
# Numbers without * were called inactive; ? = inconclusive; [ ] = remark or other dose. Potency is read from the fitted curve at half-maximal effect. Some of the compounds tested; count on the stated rates, not on these rows.
# Below each SMILES – 2A StopGo	SARS PLpro yeast	RE007 growth inh
1) Cn1c(SCC(=O)NC2CCS(=O)(=O)C2)nc2ccccc21 (stereo not drawn)
    -16%	4%	1%
2) COc1cc(C#Cc2c(-c3cncn3C)n(C)c3ccc(-c4ccc(OC)nc4)cc23)cc(OC)c1
    ?	1%	-8%
3) CCOc1ccc(CNC2CCCc3ccccc32)cc1 (stereo not drawn)
    -22%	0%	2%
4) CCN1C(=O)[C@H]2[C@@H](c3ccc(-c4ccccc4)c(OC)c3)N[C@@](Cc3ccccc3)(C(=O)OC)[C@H]2C1=O
    -12%	-1%	4%
5) C=CCC[C@@H](Cc1ccc(F)cc1)C(=O)OC[C@@H](C)NC(=O)[C@H](CC=C)CC(=O)N(CCO)Cc1ccccc1
    ?	11%	-10%
6) CCOc1ccc(NC(=O)CN(C)C(=O)C(C)N2C(=O)c3ccccc3C2=O)cc1OCC (stereo not drawn)
    -8%	-1%	-2%
7) Cc1ccc(OC(F)F)c(N2C(=O)C3C4CCC(O4)C3C2=O)c1 (stereo not drawn)
    -4%	-3%	1%
8) CCOc1cc(C(=O)NCc2ccccc2)ccc1OCC(=O)N1CCCCC1
    -2%	3%	7%
9) Cc1cc(OCC(=O)N(Cc2ccco2)c2c(N)n(Cc3ccccc3)c(=O)[nH]c2=O)ccc1Cl
    -27%	5%	9%
10) C=C(C)C(O)Cc1c(OC)ccc(C(=O)/C=C/c2ccc(O)cc2)c1O (stereo not drawn)
    -2%	-15%	6%
11) C=CC(n1cncn1)C(O)(c1ccccc1)c1ccccc1 (stereo not drawn)
    -8%	0%	-1%
12) Cc1noc(C)c1COC(=O)CCCNC(=O)c1ccc(Cl)cc1
    -10%	0%	0%
13) Cc1cc(NS(=O)(=O)c2ccc(NC(=O)COc3cc(C)c(Cl)c(C)c3)cc2)no1
    -16%	5%	-8%
14) CCN(CC)S(=O)(=O)c1ccc(N2CCCC2)c(NC(=O)c2nn(C)c(=O)c3ccccc23)c1
    -25%	-12%	-3%
15) Cc1ccc(OCC(=O)N/N=C/c2ccc3c(c2)OCO3)cc1C
    20%	-2%	0%
16) Cn1c(-c2ccccc2)c(C#Cc2ccc(N)cc2)c2ccccc21
    -7%	-12%	-8%
17) CC(=O)Cc1nsc(NC(=O)c2cccc(F)c2)n1
    79%[activator]	-1%	7%
18) C[C@@H]1CC[C@]2(C(=O)O[C@@H]3O[C@H](CO)[C@@H](O)[C@H](O)[C@H]3O)CC[C@]3(C)C(=CCC4[C@@]5(C)CC[C@H](O[C@@H]6OC[C@H](O)[C@H](O[C@@H]7O[C@H](CO)[C@@H](O)[C@H](O)[C@H]7O)[C@H]6O)C(C)(C)C5CC[C@]43C)C2[C@]1(C)O (stereo partly drawn)
    4%	-1%	33%
19) CCOc1ccc(N2C(=O)/C(=C/c3ccccc3)N=C2SC)cc1
    32%[activator]	0%	-16%
20) CCN(CC)C(=O)[C@H]1C[C@H](CC(=O)NCc2cccc(C(F)(F)F)c2)C(=O)N2CCc3c([nH]c4cc(-c5ccco5)ccc34)[C@]12C
    ?	-5%	-12%
21) COc1cccc(NC(=O)Cn2c(=O)n(-c3ccccc3)c(=O)c3sccc32)c1
    1%	-1%	4%
22) C[C@@H]1CN([C@H](C)CO)C(=O)Cc2cc(NS(=O)(=O)c3ccc(F)cc3)ccc2O[C@H]1CN(C)Cc1ccc(C(=O)O)cc1
    -15%	4%	5%
23) Cc1cc(Br)c(NC(=O)COC(=O)c2ccc[n+]([O-])c2)c(Br)c1
    -10%	4%	0%
24) COCCN(Cc1nc2ccccc2c(=O)[nH]1)C(=O)COc1c(C)cc(Cl)cc1C
    -19%	0%	-1%
25) O=C(COC(=O)CCC1CCCC1)Nc1ccccc1Br
    -12%	3%	-12%
26) C[C@H](OC(=O)c1[nH]cnc1C(=O)N1CCN(C(=O)OC(C)(C)C)CC1)c1ccccc1
    ?	-4%	-4%
27) CCN(C[C@H]1N[C@@](Cc2ccccc2)(C(=O)OC)[C@H]2C(=O)N(C)C(=O)[C@@H]12)S(=O)(=O)c1ccc(C(C)(C)C)cc1
    0%	-1%	-5%
28) CC(=O)c1ccc(N2CCN(C(=O)CN3C(=O)NC4(CCCCC4)C3=O)CC2)c(F)c1
    -10%	4%	-14%
29) C=CC[C@@H](CC(=O)N[C@H](CO)Cc1ccccc1)C(=O)NC[C@@H](OC(=O)[C@@H](CC=C)Cc1ccc(F)cc1)c1ccccc1
    -20%	3%	-6%
30) Cc1noc(C)c1S(=O)(=O)Nc1ccc(C(=O)N2CCN(c3ccc(F)cc3)CC2)cc1
    13%	3%	-2%

# Whole records as entered above. Order of screens: 2A StopGo | SARS PLpro yeast | RE007 growth inh
# Results for CCOc1ccc(NC(=O)CN(C)C(=O)C(C)N2C(=O)c3ccccc3C2=O)cc1OCC (stereo not drawn) : -8% | -1% | -2%
# Results for COCCN(Cc1nc2ccccc2c(=O)[nH]1)C(=O)COc1c(C)cc(Cl)cc1C : -19% | 0% | -1%
# Results for CCOc1cc(C(=O)NCc2ccccc2)ccc1OCC(=O)N1CCCCC1 : -2% | 3% | 7%
# Results for CC(=O)Cc1nsc(NC(=O)c2cccc(F)c2)n1 : 79%[activator] | -1% | 7%

# Additional entries
# Below each SMILES – 2A StopGo	SARS PLpro yeast	RE007 growth inh
31) CC(=O)Nc1ccc(C(=O)N/N=C/c2ccc(F)cc2)cc1
    3%	4%	1%
32) CCc1ccccc1OCC(=O)Nc1cccc(S(=O)(=O)NC2=NCCCCC2)c1
    -4%	1%	5%
33) CC(=O)C[C@@H](O)CC(=O)[C@@H]1OC(=O)[C@@H](C)C/C=C\Cc2ccccc21
    -19%	0%	-2%
34) Cc1noc(C)c1NC(=O)N(C)C[C@@H]1Oc2c(NC(=O)c3ccncc3)cccc2C(=O)N([C@H](C)CO)C[C@@H]1C
    0%	-22%	2%
35) CCOCCCNc1c2c(nc3cc(-c4ccc(F)cc4)nn13)CCC2
    12%	1%	-3%
36) Nc1c(Cl)c(Cl)nc(C(=O)OCC(=O)NCc2ccccc2)c1Cl
    -9%	-4%	7%
37) Cc1ccc(CNC(=O)c2ccc(N3CCC4(CC3)CC(c3ccccc3)=NO4)c(NC(=O)c3c(Cl)cccc3Cl)c2)cc1
    -5%	-8%	1%
38) Cc1cnc(C(=O)OCC(=O)Nc2cc(-c3ccccc3)nn2-c2ccccc2)cn1
    7%	2%	6%
39) CCOc1ccc(/C=N/Nc2nc(=O)[nH]nc2C)cc1OC
    38%[activator]	-8%	-27%
40) COc1ccc(C(Sc2ccccc2)c2ccccc2)cc1OC (stereo not drawn)
    0%	-2%	-8%
41) CN(C(=O)CSc1nnnn1C)C1(C#N)CCCCC1
    3%	2%	3%
42) CCN(c1ccccc1)S(=O)(=O)c1ccc(OCC(=O)N2CCCC2)cc1
    -1%	3%	-14%
43) CCCCC(=O)Nc1cc(OC)c(NC(=S)NC)cc1OC
    -8%	-1%	3%
44) COc1ccc2[nH]c3c(c2c1)CCN1C(=O)C(CC(=O)NCc2ccco2)C[C@H](C(=O)N2CCOCC2)[C@@]31C (stereo partly drawn)
    -8%	4%	8%
45) CCOc1ccc(CCNC(=O)COC(=O)c2ccncc2)cc1OCC
    -12%	2%	-1%
46) Cc1ccc(S(=O)(=O)N2CCOCC2)cc1NC(=O)COC(=O)C1(C)CC1(Cl)Cl (stereo not drawn)
    -24%	-2%	6%
47) Cc1cc2c(cc(C(=O)OC(C(=O)NC3CCCCC3)C(C)C)n2C)o1 (stereo not drawn)
    -29%	5%	0%
48) CC(Sc1ccccn1)C(=O)NC1CCCC1 (stereo not drawn)
    -5%	13%	2%
49) Cc1cccc(C)c1NC(=O)CNC(=O)c1ccc(COc2ccccc2)o1
    5%	-11%	-4%
50) O=C1N[C@H]2CC=C[C@H]2N(Cc2cccs2)c2ccccc21
    0%	-13%	-18%
51) CC1CCCC(C)N1C(=O)COC(=O)c1cc(F)c(F)cc1Cl (stereo not drawn)
    1%	4%	1%
52) CCOC(=O)C1=CN(CC)S(=O)(=O)NC1CCc1ccccc1 (stereo not drawn)
    -1%	-9%	12%
53) CN(C(=O)c1ccc(NC(=O)Cc2cccc(NC(=O)C3CCN(C(=O)C4CC4)CC3)c2)cc1)C1CCCC1
    -21%	7%	-27%
54) Cc1ccc(S(=O)(=O)N(C)CC(=O)Nc2ccccc2N2CCCC2)cc1
    -28%	5%	-4%
55) O=C1OC[C@@H]2CCCN2C(=O)[C@@H](CC(=O)N(CCO)Cc2ccccc2)C/C=C\CC[C@H]1Cc1ccc(F)cc1
    -13%	-4%	9%
56) CC(=O)c1cccc(NC(=O)c2cc(-c3ccncc3)nc3ccccc23)c1
    0%	-7%	0%
57) CCCNC(=O)CSc1nc2[nH]ncc2c(=O)[nH]1
    -5%	-1%	-1%
58) O=C(Nc1nccs1)c1nc[nH]c1C(=O)NCc1ccccc1
    0%	2%	6%
59) Cc1ccc(S(=O)(=O)N(C)C[C@H]2Oc3c(NC(=O)Nc4cccc5ccccc45)cccc3C(=O)N([C@@H](C)CO)C[C@@H]2C)cc1
    ?	-1%	-15%
60) CC[C@]12c3[nH]c4cc(-c5ccco5)ccc4c3CCN1C(=O)[C@@H](CC(=O)NCCCN(C)C)C[C@@H]2C(=O)N1CCN(C(=O)c2ccco2)CC1
    -12%	-1%	-9%

No. | smiles | 2A StopGo | SARS PLpro yeast | RE007 growth inh
61 | CC(C)(C)OC(=O)NCCCCCNC(=O)c1nc[nH]c1C(=O)NCc1ccc(CNC(=O)OC(C)(C)C)cc1 | 16µM* | -10% | 3%
62 | COc1ccccc1NC(=O)CSc1nccc(-c2ccco2)n1 | -13% | 0% | 1%
63 | COc1ccc(C(=O)Nc2ccc(Cl)cn2)cc1S(=O)(=O)N1CCCC1 | -7% | -3% | 4%
64 | CCC1(C)NC(=O)N(CC(=O)N2CCN(c3cccc(Cl)c3)CC2)C1=O (stereo not drawn) | -10% | -2% | 2%
65 | CNc1snc(C)c1C(=O)OC(C)C(=O)c1ccc(F)cc1 (stereo not drawn) | ? | -3% | 3%
66 | CC1CC(C)CN(S(=O)(=O)c2ccc(NC(=O)[C@@H]3CCCN3C(=O)c3cccs3)cc2)C1 (stereo partly drawn) | -7% | 2% | 1%
67 | Cc1ccc(O)c(N=Nc2nccs2)c1 | 0% | -8% | 18µM*
68 | Cc1noc(C)c1C(=O)OCC(=O)NCc1ccc(Cl)cc1 | 5% | -5% | -2%

No. | smiles | 2A StopGo | SARS PLpro yeast | RE007 growth inh
69 | C=CCN(CC=C)S(=O)(=O)c1ccc(C(=O)Nc2nnc(CSC)o2)cc1 | -12% | 1% | -10%
70 | CCOC(OCC)c1cc2ccccc2cn1 | 23% | 6% | -17%
71 | COc1cc2c(cc1OC)CN(C(=O)c1ccc(Cl)c(S(=O)(=O)N3CCCC3)c1)CC2 | ? | 0% | 1%
72 | CCN1C(=O)[C@@H]2[C@@H](c3ccc(-c4ccc5c(c4)OCO5)cc3)N3CCCC[C@@]3(C(=O)OC)[C@@H]2C1=O | ? | -8% | -4%
73 | COc1ccc(Cl)cc1NC(=O)CN(C)CC(=O)N1CC(=O)Nc2ccccc21 | -23% | -1% | -2%
74 | C[C@@H](NC(=O)c1nc[nH]c1C(=O)NC1CCN(C(=O)OC(C)(C)C)CC1)c1ccccc1 | -16% | 1% | ?
75 | O=C(Nc1ccc(Cl)c(S(=O)(=O)N2CCCC2)c1)c1cc(=O)[nH]c2ccccc12 | 0% | -7% | -4%
76 | CSc1ncccc1C(=O)N1CCN(S(=O)(=O)c2ccc3c(c2)OCCO3)CC1 | -22% | 2% | -7%

No. | smiles | 2A StopGo | SARS PLpro yeast | RE007 growth inh
77 | N#CCC(=O)Nc1ccc(C(=O)NNC(=O)c2ccccc2-n2cccc2)cc1 | -10% | 0% | -4%
78 | COC(=O)c1c(-c2ccc(S(C)(=O)=O)cc2)sc2ccc(OC)cc12 | 5% | 5% | 18%
79 | COc1cc(C(=O)NCCCN2CCCC2=O)cc(Br)c1OCc1ccccc1 | 0% | 0% | 9%
80 | COc1ccc(NC(=O)Nc2cccc3c2O[C@H](CN(C)S(=O)(=O)c2c(C)noc2C)[C@@H](C)CN([C@H](C)CO)C3=O)cc1 | -2% | -4% | -1%
81 | CCCN=C1N(C)C[C@@H]2[C@@H]3C(=O)N(C)C(=O)[C@@H]3[C@](CC)(C(=O)OC)N12 | -12% | 10% | 0%
82 | CN(C)S(=O)(=O)c1cccc(NC(=O)COC(=O)c2cccn2C)c1 | 2% | -1% | 16%
83 | Cc1ccc(Sc2sc(=O)n(C)c2S(=O)(=O)c2ccc(C)cc2)cc1 | -25% | 2% | -5%
84 | COc1ccc(CCNC(=O)c2cccc(S(=O)(=O)NC(C)c3ccccc3)c2)cc1 (stereo not drawn) | -6% | -41% | -9%
85 | Cc1nn(Cc2ccccc2)c(Cl)c1/C=C/C(=O)OCC(=O)NC(C)C(C)C (stereo not drawn) | -23% | 0% | 1%
86 | Cc1cccc(NS(=O)(=O)c2cccc(C(=O)NCc3ccccc3CN3CCOCC3)c2)c1 | 4% | -21% | -12%
